# Screens deposited in PubChem BioAssay by Broad Institute.
# Tgondii IFNg – blocks Toxoplasma gondii growth in the presence of IFN-gamma; 69,000 compounds, 3.8% hits; activity change, negative = inhibition, %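 (about 20 µM by stock and volumes)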; Toxoplasma gondii growth in IFN-gamma-treated host cells; stronger effect = lower value; reference of the scale not given here; AID 1259416;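 active means below -70%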;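 further: host cells are HeLa cells infected with Toxoplasma gondii; parasite growth read as luciferase light; one replicate is shown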
# An asterisk follows results filed as active.
SMILES,Tgondii IFNg
Cc1cc(=O)n2[nH]cc(C(=O)N3CCC(n4c(=O)oc5ccccc54)CC3)c2n1,12
Cc1cccc(NC(=O)COC(=O)c2cccnc2)c1C,235
CCCN1C(=O)NC(CC(=O)N2CCC(c3ccc(Cc4ccccc4C)cn3)CC2)C1=O (stereo not given),-66
Cc1cc(C)c2nc(-c3ccccc3)cc(C(=O)O)c2c1,28
CCCN1CCN(CCCNC(=O)C2=C(C)C(=O)OC23CCN(S(=O)(=O)CC)CC3)CC1,15
Nc1ccccc1CN1CCCCCC1,-21
CC(C)(C)c1ccc(C(=O)N2NC(=Nc3ccccc3)SC2(C)C)cc1,-87*
O=C(c1ccc(Br)cc1)N1CCc2c([nH]c3ccccc23)C1c1cccnc1 (stereo not given),-86*
Cc1ccc(NC(=O)C(=O)NCCc2csc(-c3ccc(F)cc3)n2)c(C)c1,4
CCOC(=O)CSC1=Nc2ccccc2C2=NC(CCC(=O)NCc3ccccc3)C(=O)N12 (stereo not given),3
COc1ccc(C[C@@H]2CCn3cc(nn3)COC[C@H](c3ccccc3)NC2=O)cc1,-24
CN1CCCC(C(=O)N2CCc3c(nc(-c4ccccc4)[nH]c3=O)C2)C1 (stereo not given),-4
Cc1nc(CN2C(=O)COC3(CCN(CC4CC4)CC3)C2C)cs1 (stereo not given),-1
NCCC(O)(P(=O)(O)O)P(=O)(O)O,35
C[C@@H]1CCCCO[C@@H](CN(C)C(=O)c2ccncc2)[C@@H](C)CN([C@H](C)CO)C(=O)c2cc(NC(=O)CCC(F)(F)F)ccc2O1,-21
CCSCCNC(=O)CNS(=O)(=O)c1ccc(C)cc1C,19
COCCn1nnnc1C(C(C)C)N1CCN(C2CCCCC2)CC1 (stereo not given),-8
O=C(NCCN1CCCC1)C1CCN(Cc2cc3ccccc3n2Cc2cccc(Cl)c2)CC1,-21
COc1ccc(NS(=O)(=O)c2ccc(F)cc2)cn1,42
CCN1CCn2cc(C(=O)N3CCN(c4ccccn4)CC3)nc2C1,75
CN(C)S(=O)(=O)c1ccc(C(=O)Nc2nc3ccccc3s2)cc1,60
COCC(=O)N1C[C@@H](C)[C@H](OC)CN(C)C(=O)c2ccc(NC(=O)c3ccc(-c4ccccc4)cc3)cc2OC[C@H]1C,-103*
Cc1n[nH]c(C)c1CN1CCC(N2CCCC(C(=O)N3CCCC3)C2)CC1 (stereo not given),-3
Cn1ccc2c(-c3ccc(C(O)CN4CCOCC4)cc3)ccnc21 (stereo not given),5
COC(=O)c1sccc1Oc1ccc(C(F)(F)F)cc1NC(=O)c1ccccc1,-3
SMILES,Tgondii IFNg
CC(C)(C)C(=O)N1CCc2nc(-c3ccncc3)nc(Nc3nc4ccccc4s3)c2C1,-28
O=C1CNC[C@H]2[C@@H](c3ccc(C#Cc4cccnc4)cc3)[C@@H](CO)N12,-53
Cc1ncc(C)c(N2CCC(c3[nH]ncc3Cc3ccccc3)CC2)n1,-42
Cc1cncc(C(=O)N2CCC(N3CCOCC3)CC2C(=O)O)c1 (stereo not given),-15
CC1=C(C(=O)N2CCc3ccccc3C2)C2(CCN(S(=O)(=O)c3cccs3)CC2)OC1=O,-18
CC1(C)OC(=O)N(c2ccccc2)C12C=Cc1cc3ccccc3cc1O2 (stereo not given),-16
Clc1ccc(-c2nc(N3CCCc4ccccc43)c3ccccc3n2)cc1,9
O=C(C[C@H]1CC[C@@H](NC(=O)CC2CC2)[C@@H](CO)O1)NCC(F)(F)F,21
O=C(C[C@H]1CC[C@@H]2[C@H](COC[C@@H](O)CN2C(=O)Nc2ccc(Cl)cc2)O1)NCC1CCCCC1,-49
CN(CC1COCCO1)c1nc(C(C)(C)C)nc2c1cnn2C (stereo not given),-5
CCOCC(=O)N1CCC2(CCCN2CC2CC2)CC1,9
CCOc1cccc(C2c3[nH]c4ccccc4c3CCN2C(=O)c2cccc(F)c2)c1 (stereo not given),-123*
O=C(CCn1ccccc1=O)Nc1cnc2n1CCCC2,-6
CCCNC(=O)N1CC(=O)N2[C@@H](CO)[C@@H](c3ccc(C#Cc4cccc(OC)c4)cc3)[C@@H]2C1,-56
CCCOc1ccc(N2C(=O)CC(SCc3nc4ccccc4[nH]3)C2=O)cc1 (stereo not given),43
Cc1noc(C)c1NC(=O)N(C)C[C@H]1Oc2ccc(NC(=O)CCCN(C)C)cc2C(=O)N([C@@H](C)CO)C[C@@H]1C,-10
CC1CCCN(c2ncc(C(=O)N3CCCCC3CCN3CCCC3)cn2)C1 (stereo not given),49
CCOc1ccc(OCc2cccc(C(=O)NCc3cccnc3)c2)cc1,127
COc1ccc(-c2nc(C)c(CCNC(=O)C(=O)Nc3cccc(F)c3)s2)cc1,34
CNC(=O)[C@@H]1C[C@H](N)CN1C(=O)CCc1ccc(-c2ccc(Cl)cc2)[nH]1,5
Cc1cnc(N2CCC3(CC2)CN(C(=O)c2cscn2)CCO3)nc1,6
Cc1c(Cl)cccc1NC(=O)CN1CCC2(CC1)N=C(c1cccc(F)c1)C(=O)N2,20
CN1CC23CN(C)CC2(C1)CN(Cc1cc2n(n1)CCNC2)C3 (stereo not given),2
Cc1nn(C)cc1C(C)NC(=O)c1cccc(OCc2c(C)noc2C)c1 (stereo not given),32
O=C(CCC(=O)NCCO)NCCO,8
SMILES,Tgondii IFNg
Cc1cccc(NC(=O)NCC(c2cccnc2)c2cn(C)c3ccccc23)c1 (stereo not given),218
c1cncc(-c2[nH]c3ncccc3c2CN2CCSCC2)c1,-34
O=S(=O)(NCc1cccs1)c1ccccc1,20
O=C(Cc1ccncc1)N1CC[C@@H]2[C@H](CO)Nc3ccc(-c4ccccc4F)cc3[C@@H]21,32
O=C(O)c1cccc(CC2CCN(C(=O)Cc3cccnc3)CC2)c1,-51
CN(C)C(=O)COc1ccc(S(=O)(=O)c2ccc(OCC(=O)N(C)C)cc2)cc1,-13
COc1cc(Cl)cc2cc(C(=O)N3CCCC4(CNC(=O)O4)C3)oc12 (stereo not given),14
O=C(COc1ccc(-n2cnnn2)cc1)N1CCCC2(CCNCC2)CC1,47
O=C(NCC1CC1)[C@H]1C[C@@H]2CN(C(=O)Nc3ccccc3)C[C@H]1O2,3
COc1cc(-c2ccc(C(C)NC(C)=O)cc2)cc(OC)c1OC (stereo not given),-5
CNc1cc(CN(C)C(C)=O)nc(C2CCCCN2S(=O)(=O)c2ccc(C)cc2)n1 (stereo not given),10
Cc1cc(C)n(CCNC(=O)c2n[nH]c3c2CCC3)c(=O)n1,3
c1cc2c(cc1-n1cnnc1)N1CCN=C1S2,10
COc1ccc2[nH]c(=O)c(CN(C)C(C)C(=O)N(C)C)cc2c1 (stereo not given),13
CN1CCc2[nH]nc(C(=O)N3CCCC(N4CCCC4)C3)c2C1 (stereo not given),7
Cc1nc(C(C)n2cc(-c3sccc3C)nn2)cs1 (stereo not given),-16
CCCNC(=O)c1ccc(-c2nc(CN3CCc4ccccc43)c(C)o2)cc1,4
C[C@H](CO)N1C[C@H](C)[C@@H](CN(C)C(=O)Nc2ccc3c(c2)OCO3)Oc2c(NC(=O)c3nc4ccccc4s3)cccc2C1=O,4
O=C1CC(C(=O)Nc2ccc(Br)cc2)N=C(N2CCOCC2)N1 (stereo not given),-25
Cc1ccc(C)n1-c1ccc(C2(O)CCSc3ccc(F)cc32)cc1 (stereo not given),14
Cc1nccc(-c2ccccc2)c1C(=O)N1CCC2(CN(C)C(=O)O2)C1 (stereo not given),28
CCCn1ncc(C(=O)N(Cc2nccn2C)C2CC2)c1C,1
COc1ccc(-c2coc3cc(O)ccc3c2=O)c(O)c1O,18
CCCC#Cc1ccc2c(c1)[C@@H]1[C@@H](CCN1S(=O)(=O)c1cccc(F)c1)[C@@H](CO)N2C,-5
O=C(C[C@H]1CC[C@@H](NC(=O)C2CC2)[C@H](CO)O1)Nc1ccccc1,36
SMILES,Tgondii IFNg
CCc1ccc(NC(=O)Cn2ncc3c(N4CCCCC4)ncnc32)cc1,131
COCCN1Cc2c(C(=O)N3CCCCCC3)ncn2-c2ccccc2S1(=O)=O,-49
O=C(c1cc2c(c3ccccc13)NC1CCC2(C(F)(F)F)O1)C(F)(F)F (stereo not given),85
COc1cc(NC(=O)N2CCC3(CC2)Nc2cc(F)ccc2-n2cccc23)cc(OC)c1OC,495
CCCn1c(=O)/c(=C2\C=Cc3ccccc3N2CC)s/c1=C1/SC(=S)N(N)C1=O,-30
COc1ccc(OC)c(S(=O)(=O)NCc2c(F)cccc2Cl)c1,-3
CCOc1ccc(-c2nc(Cn3nnc(C(=O)Nc4cc(OC)ccc4OC)c3C)c(C)o2)cc1,81
COc1c(F)cc(-c2nccn2CCn2cccn2)cc1Cl,4
COc1ccc(CN2CCOC3(COCCN(CCN(C)C)C3)C2)cc1 (stereo not given),-3
O=C(C1CC1)N1CCC(F)(F)C2(CCN(c3cnccn3)C2)C1 (stereo not given),1
CO[C@H]1CC[C@H]2CCOc3ccc(C#N)cc3C(=O)N(C)C[C@H](c3ccccc3)CC(=O)N(C)C[C@H]1O2,-4
COc1ccccc1-c1[nH]n2c(=O)cc(-c3n[nH]c4c3CCC4)nc2c1C,15
c1cnc(N2CC(c3[nH]nc4ncccc34)C2)nc1,-6
COc1ccc(N2CCCC3(C2)CN(c2nncs2)CCO3)cc1 (stereo not given),0
CCCN1CCN(C(=O)c2n[nH]nc2-c2ccccc2)CC1,-15
O=C(NCCc1ccncc1)[C@H]1[C@H](CO)[C@H]2Cn3c(ccc(-c4ccccc4)c3=O)[C@H]2N1C(=O)C1CC1,4
Cn1cnc(CCNC(=O)C[C@H]2CC[C@H]3[C@@H](COC[C@@H](O)CN3C(=O)Nc3ccc(C(F)(F)F)cc3)O2)c1,50
COCc1cnc2n1CCN(C(=O)c1ccsc1)C2C (stereo not given),37
CCO[C@H]1COC[C@@H]1n1cc(-c2ccc3c(c2)OCCO3)nn1,125
COc1ccc(CCNC(=O)c2cc(NC(C)=O)ccc2Cl)cc1OC,87
CCSc1nc(CC(=O)N(C)Cc2nc(-c3ccncc3)no2)cs1,0
CC(C)NC(=O)N1[C@@H]2CN(C)c3ccccc3[C@@H]2[C@@H]1CO,-6
CC(C)C(=O)C1c2c(ncn2C)CCN1Cc1cccnc1 (stereo not given),14
CCN(C[C@H]1[C@@H](c2ccccc2)[C@@H](CO)N1C(=O)COC)S(C)(=O)=O,12
CC(C)(C)[S@](=O)N1Cc2cc(C(=O)N[C@H]3CCN(Cc4ccccc4)C3)nc(-c3cccc(-c4cccnc4)c3)c2[C@@H]1CCO,-26

# Some of the entries so far, with each value named:
C[C@H](CO)N1C[C@H](C)[C@@H](CN(C)C(=O)Nc2ccc3c(c2)OCO3)Oc2c(NC(=O)c3nc4ccccc4s3)cccc2C1=O
  Tgondii IFNg: 4

O=C1CC(C(=O)Nc2ccc(Br)cc2)N=C(N2CCOCC2)N1 (stereo not given)
  Tgondii IFNg: -25

Cc1ccc(C)n1-c1ccc(C2(O)CCSc3ccc(F)cc32)cc1 (stereo not given)
  Tgondii IFNg: 14

Cc1nccc(-c2ccccc2)c1C(=O)N1CCC2(CN(C)C(=O)O2)C1 (stereo not given)
  Tgondii IFNg: 28

# Continuation.
SMILES,Tgondii IFNg
C[C@H](NC(=O)C1(c2ccccc2)CCN(C(=O)[C@H]2CSCN2C(=O)OC(C)(C)C)CC1)C(=O)O,21
Cc1ccc(S(=O)(=O)N2CCC(c3nc(C(=O)N4CCCC4)c(C)o3)CC2)cc1,-57
CCCCN(CC)CCCNC(=O)C1=C(C)C(=O)OC12CCN(CC)CC2,29
C/C=C/c1cnc2c(c1)C(=O)N([C@H](C)CO)C[C@@H](C)[C@@H](CN(C)C(=O)Nc1cccc(OC)c1)O2,-45
COc1ccc(C)cc1NC(=O)N(C)C(C)c1nc(C)sc1C (stereo not given),-16
O=C(NCc1ccccc1)c1c(O)c2ccccc2n(-c2ccccc2)c1=O,47
CC(C)c1ocnc1C(=O)N1CCC(c2cc(Cc3ccccc3)[nH]n2)CC1,9
O=C(c1cnc(Nc2ccccc2)nc1)N1CCCn2cncc2C1,92
Cc1ccc(NC(=O)CSC2CCS(=O)(=O)C2)cc1Cl (stereo not given),29
O=C(C1CCCCC1)N1[C@@H]2CNc3ccccc3[C@@H]2[C@@H]1CO,-7
CN1CCCc2sc(C(=O)N3CCC(N(C)C)CC3)nc21,-30
CCOc1ncccc1-c1ccc[nH]c1=O,-1
CCCCCCCCNS(=O)(=O)c1ccc(N2C(=O)c3ccccc3C2=O)cc1,-66
COCC(=O)N1CCC2(CC1)COC(COCc1ccncc1)C2 (stereo not given),-4
COc1cccc(-c2nc(Cn3ccn4nc(-c5ccc(F)cc5)cc4c3=O)c(C)o2)c1OC,66

# Rewritten bar-delimited: part of the list above.
smiles | Tgondii IFNg
CCCCN(CC)CCCNC(=O)C1=C(C)C(=O)OC12CCN(CC)CC2 | 29
C/C=C/c1cnc2c(c1)C(=O)N([C@H](C)CO)C[C@@H](C)[C@@H](CN(C)C(=O)Nc1cccc(OC)c1)O2 | -45

# Looked up above.
# Tgondii IFNg result of CCCCCCCCNS(=O)(=O)c1ccc(N2C(=O)c3ccccc3C2=O)cc1 → -66
# Tgondii IFNg result of COc1cccc(-c2nc(Cn3ccn4nc(-c5ccc(F)cc5)cc4c3=O)c(C)o2)c1OC → 66
# Tgondii IFNg result of COCC(=O)N1CCC2(CC1)COC(COCc1ccncc1)C2 (stereo not given) → -4
# Tgondii IFNg result of O=C(NCc1ccccc1)c1c(O)c2ccccc2n(-c2ccccc2)c1=O → 47
# Tgondii IFNg result of CCCCN(CC)CCCNC(=O)C1=C(C)C(=O)OC12CCN(CC)CC2 → 29
# Tgondii IFNg result of COc1ccc(C)cc1NC(=O)N(C)C(C)c1nc(C)sc1C (stereo not given) → -16

# These rows are one share of the data; count on the stated rates, not on these rows.
